# Assay outcomes deposited in PubChem by National Center for Advancing Translational Sciences (NCATS).
# PINK1 modulator: PINK1 expression modulation; PINK1 immunofluorescence, high-content cytometry, 24 h; Potency, µM (doses to about 76.6 µM), without a hit: at the highest dose activation (PINK1 increase), actives largely listed as activators; actives 0.2% (n = 410,000); AID 624263; active = well fitted activation curve with a large enough effect; inconclusive = small, poorly fitted or top-dose-only effect; inactive = flat fitted curve, though single readings scatter; cell line not stated here;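 also: % of control where 0% means no effect; nearly all actives have a fitted effect of over 65% in size; a mitochondrial uncoupler was the plate control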
#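 Readout is PINK1 immunofluorescence, quantified alongside mitochondrial, cell and nuclear markers by laser-scanning microplate cytometry. Cells from a stable line were exposed to compound titrations (5 concentrations) for 24 hours, with CCCP controls.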
# * marks the source's active call; other numbers are inactive results; ? = inconclusive. Potency is read from the fitted curve at half-maximal effect.
# Start of the listing, in advance (five entries):
Structure,PINK1 modulator
CN1CCN(c2ncc3nc(-c4cc(F)cc(F)c4)c(=O)n(Cc4cccs4)c3n2)CC1,0.3%
O=S(=O)(NC1CCN(S(=O)(=O)c2c(F)cccc2F)CC1)c1ccc2c(c1)OCCO2,0.1%
Cc1noc(C)c1-c1nccc(N(C)C)n1,-0.5%
O=c1cnc2cnc(OCc3ccccc3)nc2n1CCc1ccccc1,-0.3%
COC(=O)N1CCC[C@@]2(CCN(c3ccncc3)C2)C1,-0.9%

# The whole of this part, repeating the preview:
Structure,PINK1 modulator
CN1CCN(c2ncc3nc(-c4cc(F)cc(F)c4)c(=O)n(Cc4cccs4)c3n2)CC1,0.3%
O=S(=O)(NC1CCN(S(=O)(=O)c2c(F)cccc2F)CC1)c1ccc2c(c1)OCCO2,0.1%
Cc1noc(C)c1-c1nccc(N(C)C)n1,-0.5%
O=c1cnc2cnc(OCc3ccccc3)nc2n1CCc1ccccc1,-0.3%
COC(=O)N1CCC[C@@]2(CCN(c3ccncc3)C2)C1,-0.9%
CC(=O)N1CCC2(CC1)CCN(C(c1ccccc1)c1ccccc1)CC2,-0.7%
CN(C)Cc1ccc(-c2nc3cccc4c3n2CCNC4=O)cc1,0.9%
Cc1c(C(=O)NCc2ccc3c(c2)OCO3)cnn1-c1ncc2c(n1)-c1ccccc1CC2,0.9%
CN1CCN(c2ncc3nc(-c4ccc(F)cc4)c(=O)n(Cc4cccs4)c3n2)CC1,3.1%
CC(C)C(NC(=O)c1ccccn1)c1nnc2n1CCN(Cc1ccc3ccccc3c1)CC2 (stereo not drawn),-1.0%
Cc1nc2cnc(Nc3ccccc3)nc2n(Cc2cccs2)c1=O,6.5%
CNc1ncnc2ccc(-c3cccc(OC)c3)cc12,0.8%
CCS(=O)(=O)NCc1c(C)ncc2c1CCN(C(=O)c1ccc(F)cc1)C2,-0.9%
O=c1cnc2cnc(Nc3ccccc3)nc2n1CCc1ccccc1,11.1%
O=c1cnc2cnc(Nc3ccccc3)nc2n1C[C@H]1CCCO1,-1.0%
COc1cccc(CN2C(=O)NC(C)(C3CCN(Cc4cc(F)cc(F)c4)CC3)C2=O)c1OC (stereo not drawn),-0.1%
Cc1cc(S(=O)(=O)NCc2nc(N3CCCC3)c3cc(Cl)ccc3n2)c(C)s1,1.1%
Cc1cc(-c2ccnc(-n3ncc(C(=O)NCC4CCCN(C)C4)c3C3CC3)n2)c(C)s1 (stereo not drawn),-0.6%
Cc1c(C(=O)NCC2(c3ccccc3)CCOCC2)cnn1-c1nccc(-c2ccco2)n1,-0.1%
Cn1c2ccccc2c2cc(C(=O)N3CCOc4ccc(C(C)(O)CCn5cccn5)cc4C3)ccc21 (stereo not drawn),-0.2%
CSc1nc(C(=O)N2CCOc3ccc(CN4CCN(Cc5ccccn5)CC4)cc3C2)cs1,0.1%
CCC(=O)NC(c1cccs1)c1cc([N+](=O)[O-])c2cccnc2c1OC (stereo not drawn),0.2%
COc1cccc(Cn2c(=O)c(-c3cccc(C#N)c3)nc3cnc(N4CCOCC4)nc32)c1,2.9%
C/C(=C\CO)CCC(C)CCCC(C)CCCC(C)C (stereo not drawn),2.1%
CN(C)CCCNC(=O)c1ccc(-c2cc(O)c3ncccc3c2)cc1,-0.4%
COc1cccc(-c2ccc3ncnc(NCc4cnc(C)cn4)c3c2)c1,-1.1%
Cc1nc2cc(NC(=O)[C@@H]3C[C@@H](Sc4ccccn4)CN3Cc3cccc(Cl)c3)ccc2s1,-0.1%
CS(=O)(=O)Nc1cccc(-c2cncnc2NCc2cccs2)c1,0.8%
CN(C)c1ncc2nc(-c3ccc(F)cc3)c(=O)n(Cc3cccs3)c2n1,0.9%
COc1ccccc1-c1ccc2ncnc(NCc3cccnc3)c2c1,1.1%
Cc1ncc2c(c1CNS(=O)(=O)c1cccs1)CCN(C(=O)/C=C/c1ccc(F)cc1F)C2,0.5%
Cn1cc(-c2nc3cnc(Oc4ccccc4)nc3n(C)c2=O)c2ccccc21,-0.7%
COc1ccccc1C(=O)N[C@@H]1c2ccccc2C2(CCN(Cc3nccs3)CC2)[C@H]1OC,2.7%
Cn1cccc1C(=O)N1CCC[C@@]2(CCN(C(=O)Nc3cccc(F)c3)C2)C1,0.0%
COc1ccc(-c2nc3cnc(N(C)C)nc3n(C3CC3)c2=O)cc1,1.2%
CC(C)NC(=O)N1CCCC2(CCN(C(=O)c3ccncc3)CC2)C1,-0.2%
Cc1ccccc1C(=O)N1CCc2c(cnc(C)c2CNC(=O)CN2CCCCC2)C1,1.4%
CC(=O)NCCNc1ncnc2ccc(-c3ccccc3C#N)cc12,0.2%
COc1ccc(NC(=O)N2CC[C@@]3(CCCN(C(C)=O)C3)C2)cc1,0.0%
CC(=O)NCCNc1nc(-c2cccc(NS(C)(=O)=O)c2)nc2ccccc12,2.2%
c1ccc(CNc2cc(-c3cccnc3)ncn2)cc1,-1.3%
COc1cccc(-c2ccc(O)c(CNCc3cccc4ccccc34)c2)n1,0.5%
CCOc1ccccc1Nc1nc(N2CCCC2)nc(N2CCOCC2)n1,1.2%
COc1ccc(C(=O)N2CCC3(CCN(Cc4ccncc4)CC3)CC2)cc1,-0.7%
CC(C)Oc1ccc(C(=O)NCC2Cc3cc(F)cc(-c4cnccn4)c3O2)cc1 (stereo not drawn),0.8%
Cc1c(C(=O)NCCCc2ccncc2)cnn1-c1ncc2c(n1)-c1ccccc1CC2,-0.2%
FC(F)(F)c1ccccc1-c1cc(NCc2cccs2)ncn1,2.0%
COC(=O)[C@@H]1C[C@H](NC(=O)c2cc(C(F)(F)F)ccc2Cl)CN1Cc1cccc(O)c1,0.9%
CNc1nc(-c2ccccc2C)nc2ccccc12,0.2%
NC(Cc1ccc(Cl)cc1)C(=O)O (stereo not drawn),2.2%
O=c1c(-c2ccccc2)nc2cnc(N3CCNCC3)nc2n1C1CC1,0.8%
COC(=O)C1CCN(Cc2ccc3c(c2)CN(C(=O)c2cc(C)nc(C)n2)CCO3)CC1,-0.5%
CCNc1ncc2nc(-c3ccc(Cl)cc3)c(=O)n(Cc3cccc(OC)c3)c2n1,1.3%
O=C(CCN1Cc2ccccc2OC(c2ccccc2F)C1)N1CCC(N2CCCC(O)C2)CC1 (stereo not drawn),6.5%
COC(=O)N1CCC[C@@]2(CCN(C(=O)Nc3cccc(C#N)c3)C2)C1,0.2%
O=C(c1ccccc1)N(C(=O)c1ccccc1)c1ncnc2c1C(c1ccccc1)c1c(ccc3ccccc13)O2 (stereo not drawn),2.5%
COc1ccccc1-c1ccc2ncnc(N(C)C)c2c1,-0.6%
COS(C)(=O)=O,0.3%
COc1cccc(Cn2c(=O)cnc3cnc(Nc4cccc(OC)c4)nc32)c1,0.5%
Cc1ncc2c(c1CNC(=O)c1ccc3c(c1)OCO3)CCN(C(=O)c1cnsn1)C2,0.1%

# The final two entries of the part before lead into the next.
Structure,PINK1 modulator
COc1cccc(Cn2c(=O)cnc3cnc(Nc4cccc(OC)c4)nc32)c1,0.5%
Cc1ncc2c(c1CNC(=O)c1ccc3c(c1)OCO3)CCN(C(=O)c1cnsn1)C2,0.1%
Cc1cnc(CNc2nc(-c3ccc(C(=O)N(C)C)cc3)nc3ccccc23)cn1,-1.5%
Cc1noc(C)c1C(=O)N1CCC2(CC1)CN(Cc1cc(C(F)(F)F)cc(C(F)(F)F)c1)C2,0.3%
CCNc1ncc2nc(-c3cc(F)cc(F)c3)c(=O)n(C)c2n1,0.7%
Cc1noc(C)c1-c1nc(NC2CC2)c2ccccc2n1,0.4%
COc1cccc(Cn2c(=O)c(C)nc3cnc(Oc4cccc(Cl)c4)nc32)c1,3.3%
CCCc1nc2cccnc2n1C1CCN(C(=O)CC2NC(=O)c3ccccc32)CC1 (stereo not drawn),1.3%
COc1ccc(-c2nc3cnc(N4CCN(C)CC4)nc3n(Cc3cccc(OC)c3)c2=O)cc1,8.3%
N#Cc1cccc(NC(=O)N2CCC3(CC2)CCN(C(=O)c2cccc(F)c2)CC3)c1,-0.1%
Cn1cccc1C(=O)N1CCC2(CCCN(c3ccc(-c4ccccc4)cc3)C2)CC1,0.6%
Cn1cccc1C(=O)N1CCC2(CC1)CN(c1cccc(-c3ccccc3)c1)C2,0.7%
Cc1nc2cnc(Oc3cccc(Cl)c3)nc2n(CCc2ccccc2)c1=O,4.7%
O=c1cnc2cnc(Oc3ccccc3)nc2n1Cc1ccc(F)cc1,1.8%
COc1ccccc1-c1cncnc1N(C)Cc1ccco1,0.0%
CCNc1ncc2nc(-c3cn(C)c4ccccc34)c(=O)n(-c3ccccc3)c2n1,?
NC(=O)C1CCN(c2nc(-c3cccc(Cl)c3)cs2)CC1,0.3%
CC(=O)N1CCC[C@H]1C(=O)NCC1Cc2cc(-c3cnccn3)cc(Cl)c2O1 (stereo partly drawn),2.6%
COc1ccc(C(=O)N2CCC3(CC2)CN(c2cccc(-c4ccccc4)c2)C3)cc1,0.1%
C#CCCCCCCCCCCCC(=O)CC(O)COC(C)=O (stereo not drawn),-0.3%
Cc1ncc2c(c1CNC(=O)c1ccc3c(c1)OCO3)CCN(C(=O)c1cn3ccccc3n1)C2,0.1%
CC(=O)Nc1sc2c(c1-c1nc3ccccc3s1)CN(C(C)C)CC2,-0.8%

# Remaining list, next part
Compound,PINK1 modulator
N#Cc1ccc(CN2CCC3(CC2)CCN(C(=O)c2ccncc2)CC3)cc1,-0.6%
COc1cc(C2=CCN(C(C)=O)CC2)ccc1OC(C)=O,-0.1%
COc1ncc2nc(-c3ccccc3)c(=O)n(CCC#N)c2n1,0.7%
CSc1ccc(-c2ccc(C(=O)NCC3CCCO3)c(N3CCC(O)CC3)n2)cc1 (stereo not drawn),0.6%
CC(C)(C)n1ncc2c(=O)n(Cc3c(Cl)cccc3Br)cnc21,2.8%
COc1ccc2ccccc2c1CN1CCCC(n2cc(C(=O)N3CCCC3)nn2)C1 (stereo not drawn),-0.2%
COc1ccc(Oc2ncc3nc(-c4ccc(Cl)cc4)c(=O)n(C)c3n2)cc1,0.7%
COc1cc(CNc2nc(C)c(-c3ccn(C4Cc5ccccc5C4)n3)s2)cc2c1OCO2,5.6%
C[C@@H]1CN(Cc2ccc3c(c2)CN(Cc2ccc(Oc4ncccn4)cc2)CCO3)C[C@H](C)O1,0.0%
COc1ccccc1CN1CC[C@@]2(CCCN(C(=O)c3cnccn3)C2)C1,0.1%
CN1CCN(c2ncc3nc(-c4cccc(C#N)c4)c(=O)n(Cc4ccc(F)cc4)c3n2)CC1,4.1%
Cc1ccn(CCC(=O)NCC2Cc3cc(Cl)cc(-c4ccc5[nH]ccc5c4)c3O2)n1 (stereo not drawn),2.6%
CC(=O)Nc1cc(C(=O)N2CCSCC2)cc2ncn(CCc3ccccn3)c12,0.3%
COCCn1c(=O)c(-c2cc(F)cc(F)c2)nc2cnc(N(C)C)nc21,2.6%
O=C(c1cc(C(F)(F)F)cc(C(F)(F)F)c1)N1CCC[C@@]2(CCN(Cc3nccs3)C2)C1,0.2%
CSc1nc(C(=O)NCc2nc(-c3cccc(NC(=O)c4ccc(C)s4)c3)oc2C)cs1,-0.1%
CC(=O)c1ccccc1-c1ccc2c(c1)CC(CNC(=O)c1ccnc(Cl)c1)O2 (stereo not drawn),1.6%
Cc1noc(C)c1-c1ccc2ncnc(N3CCOCC3)c2c1,0.4%
COCc1c(C(=O)N2CCCCCC2)cnn1-c1nccc(-c2cccs2)n1,-0.3%
Cc1noc(C)c1-c1nccc(NCc2cccnc2)n1,0.4%
Cc1cccc(CNC(=O)c2cnn(-c3nccc(-c4cc(C)sc4C)n3)c2C)n1,6.7%
CCC1CN(CC(=O)NC(c2ccccn2)C(F)(F)F)Cc2cc(OC)ccc2O1 (stereo not drawn),0.6%
CC(=O)OCC1OC(n2c(Br)nc3c(=O)[nH]c(N)nc32)C(OC(C)=O)C1OC(C)=O (stereo not drawn),-0.6%
COc1ccc(CCNc2ncnc3sc(C(=O)N4CCCC4)c(C)c23)cc1OC,-0.4%
COc1ccccc1CN1CCCC2(CCN(C(=O)c3ccco3)CC2)C1,-0.3%
O=C(c1cccc(F)c1)N1CCC[C@@]2(CCN(c3ncccn3)C2)C1,0.4%
c1nc(NCCN2CCOCC2)c2cc(-c3ccc4c(c3)OCO4)ccc2n1,0.4%
COCC(=O)Nc1cc(C(=O)N2CC3CCC2C3)c2c(c1)nc(-c1ccncc1)n2C (stereo not drawn),-0.7%
Cc1ncc2c(c1CNC(=O)c1cncs1)CCN(C(=O)c1cc(F)c(F)cc1F)C2,-1.0%
O=S(=O)(c1ccccc1)N1CCC2(CC1)CN(c1ccccc1)C2,-0.4%
O=c1c(-c2ccc(Cl)cc2)nc2cncnc2n1Cc1ccccc1,1.7%
c1cncc(-c2cc(-n3ccnc3)ncn2)c1,-0.6%
c1csc(CNc2cc(-c3ccoc3)ncn2)c1,0.0%
COc1ccc(C(=O)N2CCC3(CCCN(C(=O)Nc4cccc(F)c4)C3)CC2)cc1,-1.1%
COc1cccc(-c2nccc(NCc3cccnc3)n2)c1,-0.1%
CS(=O)(=O)c1ccc(-c2cccc3c2OC(CNC(=O)c2cc(C4CC4)[nH]n2)C3)cc1 (stereo not drawn),-0.6%
CC(NC(=O)c1ccco1)c1nnc2n1CCN(Cc1ccc(N3CCCC3)cc1)CC2 (stereo not drawn),-0.4%
Cc1ccccc1CN1C(=O)[C@H]2Cc3c([nH]c4ccccc34)C(C)(C)N2C1=O,12.3%
Cc1cccc(CNc2ncnc3ccc(-c4cccc(C#N)c4)cc23)c1,9.5%
O=C(c1cc(C(F)(F)F)cc(C(F)(F)F)c1)N1CCC[C@@]2(CCN(c3ccccn3)C2)C1,1.3%

# The list is partial; count on the stated rates, not on these rows.
